Assay outcomes as filed in PubChem.
HNF4A DNA FP: change in binding of human HNF4 alpha to DNA. activity change, % at 10 µM. HNF4a-FITC DNA binding, fluorescence polarization, 1 h. 360,000 tested, 0.3% active. P41235; in the data active = activity change above about 30%, passing the limit was not always enough;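 note: controls were the assay level and a saturating level of protein; the project sought stronger binding though the title names inhibitors; some compounds called inactive have numbers as strong as hits; positive values seem to mean higher polarization but the record does not say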
Vif TR-FRET: HIV-1 Vif–A3G interaction blockers – biochemical, TR-FRET, GST-Vif 1-94, biotin-A3G peptide, dose response retest, primary screen (AID 1117319). inhibition, %; hits with a dose series show IC50 in µM. 260,000 tested, 0.57% active. TR-FRET GST-Vif / biotin-A3G peptide binding; higher % means a stronger effect; test concentration not given here; strong numbers were not always called active;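 active = above the screen mean plus three standard deviations and confirmed in dose response; inconclusive = results disagree or hit not tested in dose response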;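 note: Vif residues 1-94 fused to GST binding biotinylated APOBEC3G peptide 110-148; 0% = full assay without inhibitor and 100% = GST in place of GST-Vif; retest series ran down from 100 µM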
FGF22 binding: FGF22 (human) thermal shift binding; Q9HCT0; recombinant FGF22 thermal shift, SYPRO orange fluorescence; percent of sucrose octasulfate shift, DMSO zero; calls only at 9.99 µM; 340,000 tested, 1.5% active; AID 651658;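 active = melting point raised past a set limit in the mean and every replicate; inconclusive = no clear call; three in four hits are not shown here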
Target sequence (Q9HCT0 whole entry, looked up): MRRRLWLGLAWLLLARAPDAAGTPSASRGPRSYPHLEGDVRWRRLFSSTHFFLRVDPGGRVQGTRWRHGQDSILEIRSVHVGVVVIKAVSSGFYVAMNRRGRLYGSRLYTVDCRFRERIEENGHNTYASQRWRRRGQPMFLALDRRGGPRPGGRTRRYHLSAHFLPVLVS
E coli growth: E. coli growth inhibition | OD600 absorbance (no concentration beside the values) | AID 1053175 | Escherichia coli growth, OD600, 23 h; stronger effect = lower value | 330,000 tested, 0.21% active;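 active = OD600 absorbance below the run mean of sample wells minus 3.6 SD, in any replicate, cut at about 0.56 in these data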;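 note: stock transfer was 300 nL into about 60 µL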
ALR inh: blocks human ALR sulfhydryl oxidase activity; P55789; purified ALR, DTT oxidation, H2O2 HRP-luminol luminescence; inhibition, % (concentration not given with the values); 290,000 tested, 3.8% active; AID 485317;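 active = mean and each replicate at 75% or more; inconclusive = only one of the two met; inactive = neither met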;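 note: stock transfer was 7.5 nL into about 7.5 µL; 0% = neutral wells and 100% = wells with inactivated enzyme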
Target sequence (P55789 whole entry, looked up): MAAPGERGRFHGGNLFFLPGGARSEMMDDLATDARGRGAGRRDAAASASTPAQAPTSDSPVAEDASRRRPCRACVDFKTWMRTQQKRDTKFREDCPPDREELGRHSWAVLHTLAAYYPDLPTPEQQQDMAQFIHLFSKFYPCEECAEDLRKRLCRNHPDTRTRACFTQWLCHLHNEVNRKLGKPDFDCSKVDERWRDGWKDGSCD
rRNA inh HTS: selective bacterial rRNA inhibition in E. coli | E. coli WT GFP vs humanized-ribosome RFP mutants, fluorescence, 24 h; stronger effect = lower value; DMSO median 0, no signal -100 | 350,000 tested, 1.6% active | GFP signal change (wild-type ribosome), % (no concentration beside the values);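 active = significant combined selectivity score with lowered wild-type GFP, culture density cut under 30%, mutant RFP and density less affected; inactive = any of these conditions unmet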; note: one replicate is shown; some compounds called inactive have numbers as strong as hits
AF4-AF9 inh: inhibitors of human MLL-AF4/AF9 interaction | 350,000 tested, 0.47% active | inhibition, % at 10 µM | AlphaScreen, biotin-AF4 peptide binding to FLAG-AF9 | AID 651704 | P42568;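 active = every replicate reaching a set inhibition limit, whatever the replicate mean, cut at about 25% in these data; inconclusive = mean inhibition reaches that limit but some replicates miss it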;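 note: 0% = plate neutral control median and 100% = total signal loss; the record names both 10 and 1 µM as test concentration; the first replicate is given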
Target sequence (P42568 whole entry, looked up): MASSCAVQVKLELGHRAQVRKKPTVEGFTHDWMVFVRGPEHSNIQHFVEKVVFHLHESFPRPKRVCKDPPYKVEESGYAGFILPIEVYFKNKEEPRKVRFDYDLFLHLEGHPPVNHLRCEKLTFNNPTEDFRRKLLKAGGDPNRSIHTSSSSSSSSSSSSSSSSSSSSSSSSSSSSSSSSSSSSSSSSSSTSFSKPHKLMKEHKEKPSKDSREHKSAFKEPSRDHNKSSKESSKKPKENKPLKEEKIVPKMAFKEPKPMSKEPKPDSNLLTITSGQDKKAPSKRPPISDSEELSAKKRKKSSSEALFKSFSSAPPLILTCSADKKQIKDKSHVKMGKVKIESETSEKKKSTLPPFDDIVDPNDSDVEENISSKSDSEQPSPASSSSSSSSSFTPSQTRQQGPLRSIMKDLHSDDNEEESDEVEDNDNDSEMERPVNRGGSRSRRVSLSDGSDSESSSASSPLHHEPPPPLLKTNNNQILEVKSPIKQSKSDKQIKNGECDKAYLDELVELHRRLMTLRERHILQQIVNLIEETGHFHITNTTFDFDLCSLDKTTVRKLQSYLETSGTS
rRNA inh HTS OD600: also measured in rRNA inh HTS; calls as there; OD600 change, %; measured here: OD600 growth;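 optical density of the mix in the first replicate; 0 = DMSO median and -100 = no signal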
rRNA inh HTS RFP: further read-out of rRNA inh HTS, marked with its call; RFP signal change, %; measured here: RFP humanized mutant strains;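 first replicate; 0 = DMSO median and -100 = no signal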
An asterisk follows results filed as active; i = inactive; ? = inconclusive; . = not tested or not shown.

The opening two entries, to show the layout:
SMILES	HNF4A DNA FP	Vif TR-FRET	FGF22 binding	E coli growth	ALR inh	rRNA inh HTS	rRNA inh HTS OD600	rRNA inh HTS RFP	AF4-AF9 inh
CN1CCN(C(=O)C[C@@H]2C[C@@H]3c4cc(NC(=O)Cc5ccncc5)ccc4O[C@@H]3[C@H](CO)O2)CC1	.	.	i	.	.	2	3	-1.0	1.0
O=C(CC(Nc1ccccc1Cl)C(=O)O)c1ccccc1 (centres undefined)	1.1	7%	i	0.69	98*	9	3	-3.5	-5.4

Main list, from the first entry:
SMILES	HNF4A DNA FP	Vif TR-FRET	FGF22 binding	E coli growth	ALR inh	rRNA inh HTS	rRNA inh HTS OD600	rRNA inh HTS RFP	AF4-AF9 inh
CN1CCN(C(=O)C[C@@H]2C[C@@H]3c4cc(NC(=O)Cc5ccncc5)ccc4O[C@@H]3[C@H](CO)O2)CC1	.	.	i	.	.	2	3	-1.0	1.0
O=C(CC(Nc1ccccc1Cl)C(=O)O)c1ccccc1 (centres undefined)	1.1	7%	i	0.69	98*	9	3	-3.5	-5.4
COc1ccc(CCC(=O)NCCc2nc3ccccc3[nH]2)cc1	-1.7	-5%	i	0.7	-1	-12	-12	-0.7	-0.9
COc1ccc(-c2ccc(C(=O)NCc3ccc(C(F)(F)F)cc3)c3occc23)c(C)c1	3.7	.	i	.	.	3	9	1.1	-7.6
COc1ccc2cc(C(=O)CS(=O)(=O)c3ccc(Cl)cc3)c(=O)oc2c1	.	.	i	.	.	8	8	-0.4	-4.0
Cc1ccc(CSC2=NCCN2C(=O)c2ccc([N+](=O)[O-])cc2)cc1	5.2	-9%	i	0.74	-10	5	6	-1.8	-0.2
COc1ccc(C(C(=O)NC(C)(C)C)n2c(-c3ccc(=O)[nH]c3)nc3ccccc32)cc1 (centres undefined)	4.1	.	i	.	.	-23	-56	-10	2.2
N#Cc1cccc(-c2ccc3c(c2)[C@H]2[C@H](CCN2Cc2ccncc2)[C@H](CO)N3)c1	.	.	i	.	.	7	9	4.3	-1.9
O=C(NCCN1CCCC1)[C@@H]1N[C@@H]2c3ccc(-c4ccccc4)c(=O)n3C[C@@H]2[C@H]1CO	.	.	i	.	.	2	0	1.4	5.7
COc1cc(C2=NOC(C(=O)N3CCN(c4ccc(F)cc4)CC3)C2)cc(OC)c1OC (centres undefined)	1.2	2%	.	0.66	15	.	.	.	.
O=C(C[C@@H]1C[C@@H]2c3cc(NC(=O)C4CCC4)ccc3O[C@@H]2[C@@H](CO)O1)NC1CCCC1	.	.	i	.	.	3	9	1.1	3.3
COc1ccc(NC(=O)COc2ccccc2Cc2ccccc2)cc1S(N)(=O)=O	-0.7	.	i	0.63	-3	-21	-32	-5.0	-0.1
CC(C)(C)c1ccc(/C=C2/SC(N3CCCC3)=NC2=O)cc1	-1.8	-2%	i	0.62	-11	-49	-75	-12	8.2
Cc1ccc2nc(N/C(=N/S(=O)(=O)c3cccs3)c3ccccc3Cl)sc2c1	0.6	29%	i	0.68	-2	-32*	-10*	1.8*	-2.9
C[C@H](CO)N1C[C@H](C)[C@H](CN(C)CC2CCCCC2)OCCCC[C@H](C)Oc2ccc(NS(=O)(=O)c3cn(C)cn3)cc2C1=O	.	.	i	.	.	2	6	1.0	-0.7
C[C@H]1CCCCO[C@H](CN(C)C(=O)C2CCCCC2)[C@@H](C)CN([C@@H](C)CO)C(=O)c2cc(NC(=O)c3ccncc3)ccc2O1	.	.	i	.	.	-5	-4	0.9	0.1
CC(C)NC(=O)N1CCCCN2[C@@H](CO)[C@@H](c3ccc(C#Cc4ccccc4F)cc3)[C@@H]2C1	.	.	i	.	.	-54	-77	-5.4	0.0
CCCP(=O)(CCC)CCP(=O)(c1ccccc1)c1ccccc1	-0.2	.	i	0.71	-22	11	9	5.9	0.4
Cc1ccc(S(=O)(=O)Nc2ccc3c(c2)C(=O)N([C@@H](C)CO)C[C@H](C)[C@@H](CN(C)S(C)(=O)=O)OCCCC[C@@H](C)O3)cc1	.	.	i	.	.	4	20	-0.2	2.0
O=C(NCc1cccnc1)c1ccc(N2CCOCC2)c([N+](=O)[O-])c1	0.7	6%	i	0.63	-4	2	-5	-0.7	0.6
COCCCNC(=O)c1c(NC(=O)c2cccs2)sc2c1CCCC2	-0.9	-9%	.	0.67	86*	.	.	.	.
CCN(CC)c1ccc(S(=O)(=O)N2CCOCC2)cc1NC(=O)COC(=O)COc1ccccc1C	-3.1	.	i	0.69	-7	-1	9	-1.6	-0.5
O=C1c2cccc3c(O)ccc(c23)C(=O)N1c1ccc(Cl)cc1	-100	.	i	.	-87	26	-2	0.4	-7.4
CC(=O)Nc1cc(-c2cccc(C)c2)cn2c(-c3ccc(S(C)(=O)=O)cc3)cnc12	8.4	.	i	.	.	-3	6	3.0	-2.5
Cc1occc(=O)c1OC(=O)Nc1ccc(Cl)c(Cl)c1	4.9	.	i	0.66	.	-53	-80	-7.9	-0.3
CC(=O)c1ccc(NC(=S)NCc2ccc(Cl)cc2Cl)cc1	-0.9	-13%	i	0.69	.	-38	-25	-20	-2.3
C[C@@H]1CN([C@@H](C)CO)C(=O)c2cc(C#Cc3ccncc3)cnc2O[C@H]1CN(C)C(=O)c1ccccc1F	.	.	i	.	.	0	5	-1.4	-12
O=C(NC1CCN(C(=O)Nc2cccc(Cl)c2)CC1)C1CCCCC1	-3.5	.	i	0.63	-3	5	9	-0.5	-1.1
CC(=C/c1ccccc1)/C=N/Nc1nc(N2CCCCC2)nc(N2CCCCC2)n1	5.5	-3%	i	.	-10	9	1	-1.0	5.5
Cc1noc(C)c1NC(=O)N(C)C[C@@H]1Oc2ccc(NC(=O)Nc3ccccc3)cc2CC(=O)N([C@H](C)CO)C[C@@H]1C	.	.	i	.	.	5	4	-0.8	-33
CCN(CC)S(=O)(=O)c1ccc(NC2=NS(=O)(=O)c3ccccc32)cc1	0.4	10%	i	0.73	-8	0	12	11	-1.4
CC(=O)C1=CCC(c2ccc(Cl)cc2)N(S(=O)(=O)c2ccccc2)C1 (centres undefined)	-5.5	.	i	.	.	-11	-27	1.7	-0.5
COc1cc([N+](=O)[O-])c2ncsc2c1	2.5	2%	i	0.64	-5	3	11	-2.6	-7.3
CCN(CC)S(=O)(=O)c1ccc(NC2c3ccccc3C(=O)N2Cc2ccc3c(c2)OCO3)cc1 (centres undefined)	3.6	27%	i	0.78	-6	0	-4	5.9	5.0
COc1ccc(C2Nc3ccc4ccccc4c3-c3c2c(=O)oc2ccccc32)cc1 (centres undefined)	0.4	-6%	.	0.69	-1	.	.	.	.
CCOC(=O)C1CCN(C(=O)c2cccc(S(=O)(=O)N(CC)c3ccccc3)c2)CC1	1.0	?	i	0.62	-14	-13	-18	0.1	0.5
O=C1C2CCCN2C(=O)N1CCCCN1CCN(c2ccc(F)cc2)CC1 (centres undefined)	1.0	-1%	i	0.65	17	7	3	-6.2	5.2
O=C(CS(=O)(=O)c1cn(CC(=O)N2CCOCC2)c2ccccc12)NCc1ccc(F)cc1	1.7	-1%	i	0.69	-18	.	.	.	-1.8
CC(=O)OCC(=O)N1CCN(c2ccc([N+](=O)[O-])cc2)CC1	2.6	.	i	0.73	-4	4	-3	0.1	0.9
Cc1c(NC(=O)C(C)Sc2nc(N)cc(=O)[nH]2)c(=O)n(-c2ccccc2)n1C (centres undefined)	-2.9	-2%	i	0.67	.	4	9	0.2	-15
C[C@H]1CN([C@@H](C)CO)C(=O)c2cc(NS(=O)(=O)c3cccs3)ccc2O[C@@H]1CN(C)Cc1ccncc1	.	.	i	.	.	3	3	4.8	1.7
Cc1ccc(N(C(=O)c2csnn2)C(C(=O)NC2CCCCC2)c2ccco2)cc1 (centres undefined)	-0.6	.	i	0.61	2	1	6	0.9	1.5
CCO/C(C)=N/Oc1cncnc1	2.4	.	i	.	.	10	7	0.6	1.5
CCN(CC)C(=O)Nc1cnc2ccccc2c1	-0.6	-7%	.	0.76	-1	0	8	-2.9	.
CCN(CC)CCCN(C(=O)c1ccco1)c1nc(-c2ccc(C)cc2)cs1	2.3	-3%	i	0.69	-16	-34*	2.5*	-5.8*	17
COc1ccc(OC)c(-c2cc(C(=O)Nc3c(C)n(C)n(-c4ccccc4)c3=O)no2)c1	-4.4	-2%	.	0.8	4	.	.	.	.
C[C@@H]1CN([C@@H](C)CO)S(=O)(=O)c2ccc(C3=CCCCC3)cc2O[C@H]1CN(C)C(=O)c1ccccc1	.	.	i	.	.	-20	-45	8.5	5.0
COc1ccc(N(CC(=O)N2CCN(c3ccc(F)cc3)CC2)S(=O)(=O)c2c(C)noc2C)cc1	2.1	1%	i	0.66	-4	-3	-5	1.0	0.2
CN(C)CC(=O)N1[C@@H]2Cn3c(ccc(C4=CCCCC4)c3=O)[C@H]1[C@@H](C(=O)NCC1CC1)[C@@H]2CO	.	.	i	.	.	6	1	1.0	2.4
Fc1ccc(OCc2cc(-c3ccccc3)no2)cc1	1.0	-7%	i	0.68	-4	-4	-9	-1.9	-1.8
CCN(CC)CCOC(=O)C(Cc1cccc2ccccc12)CC1CCCO1 (centres undefined)	-3.6	-2%	i	0.66	-18	6	9	0.9	4.4
COc1ccc(NC(=O)COc2coc(CN3CCCc4ccccc43)cc2=O)cc1	-1.6	9%	.	0.66	5	1	5	2.6	-6.6
COc1ccc(CCNc2cc(N3CCN(C(=O)c4ccccc4OC)CC3)ccc2[N+](=O)[O-])cc1OC	2.9	.	i	0.67	-8	2	0	6.6	-20
CCS(=O)(=O)N1CCCC(C(=O)c2ccc(OC)cc2C)C1 (centres undefined)	-3.0	32%	i	0.69	-2	-9	2	-6.7	-1.2
O=C(C1=NOC2(C1)C(=O)Nc1ccccc12)N1CCCCC1 (centres undefined)	4.5	.	i	.	.	4	2	2.6	-3.9
CCOCc1c(C(=O)Nc2cc(OCC)c(N3CCOCC3)cc2OCC)oc2ccccc12	-3.1	-6%	i	0.7	-6	8	-1	1.2	2.5

Other results follow.
SMILES	HNF4A DNA FP	Vif TR-FRET	FGF22 binding	E coli growth	ALR inh	rRNA inh HTS	rRNA inh HTS OD600	rRNA inh HTS RFP	AF4-AF9 inh
Cc1cc(C)cc(-n2c(SCC(=O)NCc3ccc4c(c3)OCO4)nc3ccccc3c2=O)c1	-1.8	.	i	0.71	0	11	-3	-7.6	0.2
C/C(=N/NC(=O)c1cccc(N2CCCC2=O)c1)c1ccc(Br)cc1	0.6	2%	i	.	.	3	6	-0.9	-1.5
CSc1nc(C=Nc2ccccc2Cl)c(O)n1Cc1cccc(Cl)c1	1.1	20%	i	0.71	0	-11	3	4.6	-0.7
O=C(Nc1ccccc1)OC1CCS(=O)(=O)C1 (centres undefined)	0.8	?	i	0.63	-3	2	5	4.3	-1.7
COCC#Cc1ccc2c(c1)O[C@H](CN(C)C(=O)C1CC1)[C@@H](C)CN([C@@H](C)CO)S2(=O)=O	.	.	i	.	.	3	1	-2.8	-2.5
CC(=O)N(CCN(C)C)c1nc2cc3c(cc2s1)OCCO3	5.1	.	i	0.68	-5	7	11	-1.5	7.6
CCOc1ccc(N(CC(=O)Nc2ccc(C)c(F)c2)C2=NC3CS(=O)(=O)CC3S2)cc1 (centres undefined)	2.8	.	i	0.68	17	10	16	5.4	2.6

This is a subset (hit frequency here may not be typical).
